Vaccinia stage: blocks a specific stage of Vaccinia orthopoxvirus infection; Vaccinia-infected cells, mCherry/Venus stage reporter fluorescence; active compounds read low; some inactives read as strong as hits; activity change (mCherry), % (no concentration beside the values); actives 0.01% (n = 89,000);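 active means mCherry past -33% and 40 or more points under the early reporter, replicates agreeing; inconclusive means past -33% without that gap or agreement; tested in A549 cells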;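 further: scaled between vehicle wells and reference inhibitor wells; 23 nL library stock went into each well; one replicate is shown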
Vaccinia stage Venus: also measured in Vaccinia stage; calls as there; activity change (Venus), %; measured here: Venus reporter, other viral stage;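 negative = less Venus signal; first of two replicates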
The depositor's hits bear a star; ? = inconclusive; nt = no result given. An excerpt, so the mix of outcomes need not match the whole.

SMILES	Vaccinia stage	Vaccinia stage Venus
CN1C(=O)c2cc(NC(=O)Nc3ccc(F)cc3)ccc2OC[C@@H]2O[C@H](CC(=O)NC3CCC3)CC[C@@H]21	-8	-12
C[C@@H]1CN([C@@H](C)CO)C(=O)Cc2cc(NC(=O)Cc3ccccc3)ccc2O[C@H]1CN(C)S(C)(=O)=O	9	8
C[C@@H]1CN([C@@H](C)CO)C(=O)c2cc(NC(=O)Cc3ccccc3)ccc2O[C@@H]1CN(C)S(=O)(=O)c1cccs1	-25	-17
C[C@@H]1CN([C@H](C)CO)C(=O)Cc2cc(N(C)C)ccc2O[C@H]1CN(C)C(=O)Nc1ccccc1	10	13
C[C@@H]1CN([C@H](C)CO)C(=O)c2cc(C#Cc3ccc(F)cc3)cnc2O[C@@H]1CN(C)CC1CC1	?	nt
COCCN(C[C@H]1N[C@H](CO)[C@@H]1c1ccc(-c2ccc(F)cc2)cc1)C(C)=O	11	12
CCCN1[C@H](C(=O)N2CCOCC2)[C@@H](CO)[C@@H]2Cn3c(ccc(-c4ccccc4)c3=O)[C@@H]21	23	10
O=S(=O)(c1ccc(F)cc1)N1CCCCN2[C@@H](CO)[C@@H](c3ccc(C#CC4CC4)cc3)[C@@H]2C1	-29	-18
O=C(C[C@@H]1C=C[C@H](NC(=O)Cc2ccccn2)[C@@H](CO)O1)NCCCN1CCOCC1	-3	9
COC(=O)[C@@H]1[C@@H](CO)[C@@H]2Cn3c(ccc(-c4ccccc4F)c3=O)[C@@H]2N1C(=O)c1ccccn1	6	-4
O=C(C[C@H]1C=C[C@H](NC(=O)C2CCC2)[C@H](CO)O1)NCc1ccncc1	4	2
Cc1cccc(S(=O)(=O)N2CC[C@H]3[C@@H](CO)N(C)c4ccc(-c5cccc(C#N)c5)cc4[C@H]32)c1	-11	-17
COC(=O)[C@H]1[C@H](CO)[C@H]2Cn3c(ccc(C4=CCCC4)c3=O)[C@@H]1N2S(=O)(=O)c1cn(C)cn1	10	3
CCCNC(=O)[C@@H]1[C@@H](CO)[C@@H]2Cn3c(ccc(C4=CCCCC4)c3=O)[C@H]1N2Cc1cocn1	5	8
CN(C)C(=O)c1ccc(-c2cccc(-c3nc(C(=O)NC4CCC4)cc4c3[C@@H](CCO)N([S@](=O)C(C)(C)C)C4)c2)cc1	-11	-1
CN(C)C(=O)C[C@H]1CC[C@@H](NC(=O)C2CC2)[C@H](CO)O1	6	3
O=C(c1ccccn1)N1C[C@@H]2[C@H](c3ccccc31)[C@H](CO)N2C(=O)Nc1ccccc1Cl	-3	0
C[C@@H]1CCCCO[C@@H](CN(C)Cc2ccc3c(c2)OCO3)[C@H](C)CN([C@H](C)CO)C(=O)c2cc(NC(=O)c3ccccc3)ccc2O1	?	nt
O=C(CCN1CCCCC1)NCC[C@H]1CC[C@H](NC(=O)C2CCCCC2)[C@H](CO)O1	5	7
C[C@H]1CN([C@@H](C)CO)C(=O)c2ccccc2-c2ccccc2CO[C@H]1CN(C)S(=O)(=O)c1ccccc1C#N	9	3
COc1ccc(S(=O)(=O)Nc2ccc3c(c2)C(=O)N([C@@H](C)CO)C[C@H](C)[C@H](CN(C)Cc2ccc4c(c2)OCO4)O3)cc1	5	4
CO[C@@H]1CN(C)C(=O)c2cc(NC(=O)c3ccc(F)cc3)ccc2OC[C@@H](C)N(C(=O)c2ccc(F)cc2)C[C@@H]1C	-4	2
CCCNC(=O)Nc1ccc2c(c1)OC[C@H](C)N(Cc1ccc(-c3ccccn3)cc1)C[C@@H](C)[C@H](OC)CN(C)C2=O	-9	-6
CCCN1[C@H](CO)[C@H](c2ccc(C#Cc3ccccc3)cc2)[C@@H]1CNC1CCCC1	?	nt
O=C(NCC[C@@H]1CC[C@H](NC(=O)C2CCCC2)[C@@H](CO)O1)c1cnccn1	0	-3

Fetched by structure from above:
SMILES	Vaccinia stage	Vaccinia stage Venus
CCCN1[C@H](C(=O)N2CCOCC2)[C@@H](CO)[C@@H]2Cn3c(ccc(-c4ccccc4)c3=O)[C@@H]21	23	10
O=C(C[C@@H]1C=C[C@H](NC(=O)Cc2ccccn2)[C@@H](CO)O1)NCCCN1CCOCC1	-3	9
CO[C@@H]1CN(C)C(=O)c2cc(NC(=O)c3ccc(F)cc3)ccc2OC[C@@H](C)N(C(=O)c2ccc(F)cc2)C[C@@H]1C	-4	2

Continuation.
SMILES	Vaccinia stage	Vaccinia stage Venus
CN(C)C(=O)[C@H]1[C@H](CO)[C@H]2Cn3c(ccc(-c4ccccc4)c3=O)[C@H]2N1CCC(F)(F)F	-2	4
O=C(CN1CCOCC1)N1CC2(C1)[C@H](c1ccccc1)[C@H](CO)N2Cc1ccc(F)cc1	-5	5
C[C@@H]1CN([C@H](C)CO)C(=O)c2cccc(NS(=O)(=O)c3ccc(F)cc3)c2O[C@@H]1CN(C)C(=O)Nc1ccccc1	12	6
COc1ccc(NC(=O)N(C)C[C@H]2OCCCC[C@@H](C)Oc3ccc(NC(=O)NC(C)C)cc3C(=O)N([C@H](C)CO)C[C@H]2C)cc1	5	2
C[C@@H]1CN([C@@H](C)CO)C(=O)Cc2cc(NC(=O)Cc3cn(C)c4ccccc34)ccc2O[C@H]1CN(C)S(=O)(=O)c1ccccc1	4	11
OC[C@@H]1[C@H](c2ccc(C#CC3(O)CCCC3)cc2)[C@@H]2CN(Cc3cncnc3)CCCCN12	18	10
CC(C)NC(=O)N(C)C[C@@H]1Oc2ncc(C#CCN(C)C)cc2C(=O)N([C@H](C)CO)C[C@@H]1C	-8	-4
COCC(=O)N[C@H]1CC[C@H](CC(=O)NCc2ccc(Cl)cc2)O[C@H]1CO	-2	3
CS(=O)(=O)Nc1ccc2c(c1)[C@@H]1C[C@@H](CC(=O)NCCN3CCCCC3)O[C@H](CO)[C@@H]1O2	6	8
CNC(=O)C[C@@H]1CC[C@H]2[C@H](COc3ccc(NC(=O)Nc4ccc(C)cc4)cc3C(=O)N2C)O1	-2	-3
CC(C)NC(=O)N(C)C[C@@H]1Oc2cc(C#C[C@@H](C)O)ccc2S(=O)(=O)N([C@@H](C)CO)C[C@@H]1C	12	-1
C[C@H](CO)N1C[C@H](C)[C@H](CN(C)S(=O)(=O)c2ccsc2)OCc2ccccc2-c2ccccc2C1=O	-5	-11
COc1ccc(CN(C)C[C@H]2Oc3c(NS(=O)(=O)c4ccc(OC)cc4)cccc3C(=O)N([C@@H](C)CO)C[C@@H]2C)cc1	14	10
CN(C)CC(=O)N[C@H]1CC[C@H](CCNC(=O)C2CC2)O[C@@H]1CO	9	-1
COCC#Cc1ccc2c(c1)O[C@@H](CN(C)S(=O)(=O)c1cccc(F)c1)[C@H](C)CN([C@@H](C)CO)S2(=O)=O	-13	-6
CCCNC(=O)NC[C@@H]1[C@H](c2ccc(C3=CCCCC3)cc2)[C@H](CO)N1C(C)=O	-10	-6
CNC[C@H]1Oc2ccc(NS(=O)(=O)c3c(C)noc3C)cc2C(=O)N([C@H](C)CO)C[C@H]1C	19	6
O=C(C[C@@H]1CC[C@@H](NC(=O)Nc2cc(F)ccc2F)[C@H](CO)O1)NCCCN1CCOCC1	6	6
O=C(NC1CCCCC1)N[C@H]1C=C[C@@H](CC(=O)N2CCOCC2)O[C@@H]1CO	4	6
C[C@H]1CN([C@@H](C)CO)C(=O)c2cc(NS(=O)(=O)c3ccc(F)cc3)ccc2O[C@H]1CN(C)CC1CCCCC1	0	0
C[C@H](CO)N1C[C@H](C)[C@@H](CN(C)Cc2ccc(C(F)(F)F)cc2)Oc2ccc(NC(=O)NC3CCCCC3)cc2C1=O	-16	-14
CCNC(=O)C[C@@H]1CC[C@H]2[C@@H](COc3ccc(NC(=O)Nc4ccccc4Cl)cc3C(=O)N2C)O1	0	5
C[C@@H]1CN([C@@H](C)CO)C(=O)Cc2cc(NC(=O)Nc3ccc(C(F)(F)F)cc3)ccc2O[C@@H]1CN(C)Cc1ccc(C(=O)Nc2ccccc2N)cc1	-15	-5
C[C@@H]1CN([C@H](C)CO)C(=O)c2c(c3ccccc3n2C)-c2ccccc2CO[C@H]1CN(C)Cc1ccc2c(c1)OCCN2C	?	nt
C[C@@H]1CN([C@@H](C)CO)C(=O)c2cccc(NC(=O)NC3CCCCC3)c2O[C@H]1CN(C)C(=O)Nc1ccc2c(c1)OCO2	-3	-3

Remaining list, next part:
SMILES	Vaccinia stage	Vaccinia stage Venus
CCC(=O)N(C)C[C@@H]1Oc2ncc(C#Cc3ccncc3)cc2C(=O)N([C@H](C)CO)C[C@H]1C	15	13
C[C@H]1CN([C@@H](C)CO)C(=O)c2c(c3ccccc3n2C)-c2ccccc2CO[C@H]1CN(C)S(=O)(=O)CC(F)(F)F	17	3
C[C@@H]1CCCCO[C@@H](CN(C)Cc2ccc(Cl)c(Cl)c2)[C@@H](C)CN([C@H](C)CO)C(=O)c2cc(NC(=O)CCCN(C)C)ccc2O1	11	-1
COc1ccc(NC(=O)Nc2ccc3c(c2)C(=O)N([C@@H](C)CO)C[C@@H](C)[C@@H](CN(C)Cc2ccc4c(c2)OCO4)OCCCC[C@H](C)O3)cc1	-25	-23
COc1ccc(NC(=O)N(C)C[C@H]2Oc3c(NC(=O)Nc4ccccc4)cccc3C(=O)N([C@@H](C)CO)C[C@H]2C)cc1	-22	-16
C[C@@H]1CCCCO[C@@H](CN(C)C(=O)Nc2cccc3ccccc23)[C@@H](C)CN([C@@H](C)CO)C(=O)c2cc(NC(=O)NC3CCCCC3)ccc2O1	4	11
CO[C@H](CN(C)C(=O)c1cnccn1)[C@@H](C)CN([C@@H](C)CO)S(=O)(=O)c1ccccc1	7	6
CCNC(=O)C[C@@H]1CC[C@H]2[C@H](COc3ccc(NC(=O)Nc4cccc(C)c4)cc3C(=O)N2C)O1	2	7
Cc1ccc(S(=O)(=O)N(C)C[C@@H]2Oc3cc(C#Cc4ccccc4)ccc3S(=O)(=O)N([C@@H](C)CO)C[C@@H]2C)cc1	10	-2
C[C@@H]1CN([C@H](C)CO)C(=O)c2cc(NC(=O)C3CCCCC3)ccc2O[C@@H]1CN(C)CC1CC1	-8	-2
C/C=C/c1ccc2c(c1)O[C@@H](CN(C)C)[C@H](C)CN([C@@H](C)CO)S2(=O)=O	-4	-1
C[C@@H]1CN([C@H](C)CO)C(=O)Cc2cc(NC(=O)CCCCCC(=O)Nc3ccccc3N)ccc2O[C@@H]1CN(C)Cc1ccc(Cl)c(Cl)c1	-10	4
COc1ccc2c3c(n(C)c2c1)[C@@H](CO)N(C(=O)c1ccccn1)CC31CCN(C(=O)Cc2ccccc2)CC1	-1	-12
COc1ccc(CN(C)C[C@@H]2OCCCC[C@H](C)Oc3ccc(NC(=O)Nc4ccc(OC)cc4)cc3C(=O)N([C@H](C)CO)C[C@H]2C)cc1	?	nt
O=C(C[C@H]1CC[C@H](NC(=O)Nc2cccc(F)c2)[C@@H](CO)O1)NCC1CC1	-7	-5
CN1C(=O)c2cc(NC(=O)C3CCCC3)ccc2OC[C@@H]2O[C@H](CC(=O)NCC3CC3)CC[C@@H]21	-13	-6
C[C@@H]1CCCCO[C@@H](CN(C)S(=O)(=O)c2ccc(F)cc2)[C@H](C)CN([C@H](C)CO)C(=O)c2cc(NS(=O)(=O)c3ccccc3)ccc2O1	?	nt
CC(=O)N1CCCCN2[C@@H](CO)[C@@H](c3ccc(-c4ccccc4)cc3)[C@@H]2C1	3	1
C[C@@H]1CN([C@H](C)CO)C(=O)c2cccc(N(C)C)c2O[C@@H]1CN(C)Cc1ccc(-c2ccccc2)cc1	-21	-17
CN1CCN(C(=O)C[C@H]2C=C[C@@H](NS(=O)(=O)c3cccc(F)c3)[C@@H](CO)O2)CC1	-3	-2
C[C@H](CO)N1C[C@H](C)[C@H](CN(C)C(=O)c2ccccc2)OCc2ccccc2-c2ccccc2C1=O	29	20
C[C@H](CO)N1C[C@H](C)[C@H](CN(C)C(=O)Nc2ccc3c(c2)OCO3)Oc2ccc(NC(=O)CCC(F)(F)F)cc2C1=O	-6	-11
O=C(C[C@H]1C=C[C@H](NS(=O)(=O)c2ccc(F)cc2)[C@H](CO)O1)NCCc1ccncc1	6	13
CO[C@@H](CN(C)S(=O)(=O)c1cccc(Cl)c1)[C@H](C)CN([C@H](C)CO)S(=O)(=O)c1cccc(Cl)c1	-21	-11
COc1ccc(NC(=O)N(C)C[C@H]2Oc3c(NS(=O)(=O)c4c(C)noc4C)cccc3C(=O)N([C@@H](C)CO)C[C@H]2C)cc1	-6	-4
O=C(C[C@H]1C[C@H]2c3cc(NS(=O)(=O)c4ccc(F)cc4)ccc3O[C@H]2[C@@H](CO)O1)NCC(F)(F)F	17	8
CC(=O)N1[C@@H]2c3ccc(C4=CCCCC4)c(=O)n3C[C@H]1[C@H](CO)[C@H]2C(=O)NC1CCC1	-1	5

A different layout for part of the listing above.
Every second line gives: Vaccinia stage | Vaccinia stage Venus
> C[C@@H]1CCCCO[C@@H](CN(C)C(=O)Nc2cccc3ccccc23)[C@@H](C)CN([C@@H](C)CO)C(=O)c2cc(NC(=O)NC3CCCCC3)ccc2O1
 : 4 | 11
> CO[C@H](CN(C)C(=O)c1cnccn1)[C@@H](C)CN([C@@H](C)CO)S(=O)(=O)c1ccccc1
 : 7 | 6
> CCNC(=O)C[C@@H]1CC[C@H]2[C@H](COc3ccc(NC(=O)Nc4cccc(C)c4)cc3C(=O)N2C)O1
 : 2 | 7

Assay outcomes as filed in PubChem BioAssay.
